FGF22 binding: FGF22 (human) thermal shift binding | AID 651658 | 1.5% of 340,000 active | recombinant FGF22 thermal shift, SYPRO orange fluorescence; percent of sucrose octasulfate shift, DMSO zero | calls only at 9.99 µM;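 active = melting point raised past a set limit in the mean and every replicate; three in four hits are not shown here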
Target sequence (Q9HCT0 whole entry, looked up): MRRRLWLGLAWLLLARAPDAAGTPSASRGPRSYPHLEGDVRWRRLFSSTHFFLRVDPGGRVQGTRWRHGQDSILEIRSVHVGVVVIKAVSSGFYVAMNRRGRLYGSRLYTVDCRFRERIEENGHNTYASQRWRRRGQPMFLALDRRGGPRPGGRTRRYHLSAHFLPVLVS
rRNA inh HTS: inhibits bacterial ribosomal RNA function over humanized ribosomes | E. coli WT GFP vs humanized-ribosome RFP mutants, fluorescence, 24 h; stronger effect = lower value; DMSO median 0, no signal -100 | GFP signal change (wild-type ribosome), % (test concentration not listed) | 1.6% of 350,000 active | AID 720706;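 active = significant combined selectivity score with lowered wild-type GFP, culture density cut under 30%, mutant RFP and density less affected; inactive = any of these conditions unmet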; note: one replicate is shown; some compounds called inactive have numbers as strong as hits
MLL AF4-AF9 inh: inhibitors of human MLL-AF4/AF9 interaction; P42568; AlphaScreen, biotin-AF4 peptide binding to FLAG-AF9; inhibition, % at 10 µM; 0.47% of 350,000 active;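 active = every replicate reaching a set inhibition limit, whatever the replicate mean, cut at about 25% in these data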;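 note: 0% = plate neutral control median and 100% = total signal loss; the record names both 10 and 1 µM as test concentration; the first replicate is given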
Target sequence (P42568 whole entry, looked up): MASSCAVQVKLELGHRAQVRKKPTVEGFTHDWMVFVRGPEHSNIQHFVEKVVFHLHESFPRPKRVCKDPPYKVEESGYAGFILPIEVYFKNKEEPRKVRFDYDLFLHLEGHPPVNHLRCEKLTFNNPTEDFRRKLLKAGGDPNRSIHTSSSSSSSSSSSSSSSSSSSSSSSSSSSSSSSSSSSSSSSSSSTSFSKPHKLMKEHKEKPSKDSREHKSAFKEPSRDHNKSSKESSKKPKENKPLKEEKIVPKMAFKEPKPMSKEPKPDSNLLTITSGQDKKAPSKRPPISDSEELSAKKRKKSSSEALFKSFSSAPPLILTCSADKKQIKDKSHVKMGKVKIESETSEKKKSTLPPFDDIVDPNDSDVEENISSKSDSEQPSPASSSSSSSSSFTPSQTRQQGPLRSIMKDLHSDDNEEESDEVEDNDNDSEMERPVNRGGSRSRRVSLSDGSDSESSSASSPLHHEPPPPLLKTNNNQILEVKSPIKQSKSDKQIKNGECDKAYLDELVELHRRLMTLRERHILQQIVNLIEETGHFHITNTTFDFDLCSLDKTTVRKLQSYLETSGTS
rRNA inh HTS OD600: further read-out of rRNA inh HTS, marked with its call; OD600 change, %; measured here: OD600 growth;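 optical density of the mix in the first replicate; 0 = DMSO median and -100 = no signal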
rRNA inh HTS RFP: recorded beside rRNA inh HTS, whose call it bears; RFP signal change, %; measured here: RFP humanized mutant strains;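 first replicate; 0 = DMSO median and -100 = no signal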
An asterisk follows results filed as active; i = inactive; + = active, no number. An excerpt (hit frequency here may not be typical).

SMILES	FGF22 binding	rRNA inh HTS	rRNA inh HTS OD600	rRNA inh HTS RFP	MLL AF4-AF9 inh
C[C@@H]1CN([C@@H](C)CO)C(=O)c2cc(N(C)C)ccc2O[C@@H](C)CCCCO[C@@H]1CN(C)C(=O)C1CCCCC1	i	-2.5	-4.5	-0.6	3.8
O=C(Nc1ccc(C(F)(F)F)cc1)N[C@H]1CC[C@@H](CCn2cc(C3(O)CCCC3)nn2)O[C@H]1CO	i	-22.4	-63.0	13.8	0.1
COc1ccc(NC(=O)Nc2ccc3c(c2)[C@H]2C[C@@H](CC(=O)NC4CCCCC4)O[C@@H](CO)[C@H]2O3)cc1	i	2.1	4.8	-4.7	-7.6
COc1ccccc1CNC(=O)C[C@@H]1CC[C@H]2[C@@H](COC[C@@H](O)CN2C(=O)Nc2ccccc2)O1	i	0.5	-3.0	-0.5	1.1
C[C@@H]1CCCCO[C@@H](CN(C)Cc2ccc(Cl)c(Cl)c2)[C@@H](C)CN([C@@H](C)CO)C(=O)c2cc(NS(=O)(=O)c3ccc(F)cc3)ccc2O1	i	5.1	3.9	-1.1	-0.4
C[C@H]1CN([C@@H](C)CO)C(=O)c2cccc(NC(=O)c3ccncc3)c2O[C@H]1CN(C)Cc1ccc(Cl)c(Cl)c1	i	-2.6	-4.2	0.8	-1.3
C[C@H]1CN([C@@H](C)CO)C(=O)c2cccc(NC(=O)Nc3ccc4c(c3)OCO4)c2O[C@H]1CN(C)S(=O)(=O)c1cn(C)cn1	+	0.8	2.8	-2.3	-3.4
O=C(C[C@@H]1C[C@H]2c3cc(NC(=O)c4cccnc4)ccc3O[C@H]2[C@@H](CO)O1)NCc1ccccc1	i	-1.1	-5.4	-0.8	-0.3
C[C@@H]1CN([C@H](C)CO)C(=O)c2cccc(NS(=O)(=O)c3ccc(F)cc3)c2O[C@@H]1CN(C)Cc1ccc2c(c1)OCO2	i	0.4	-1.7	-3.1	9.4
COc1ccccc1-c1cnc2c(c1)C(=O)N([C@H](C)CO)C[C@H](C)[C@@H](CN(C)Cc1ccccc1)O2	i	-3.6	-1.6	1.7	3.4
S=C(NCCCc1cnc[nH]1)NCCCN(Cc1ccccc1)c1ccc(Br)cn1	i	-53.3	-82.6	-19.5	19.3
C[C@H]1CN([C@@H](C)CO)C(=O)CCCn2cc(nn2)CO[C@H]1CN(C)Cc1ccc(C(=O)O)cc1	i	0.1	-5.2	-2.1	-1.5
O=C(NCc1ccc2c(c1)OCO2)[C@@H]1[C@@H](CO)[C@@H]2Cn3c(cccc3=O)[C@H]1N2Cc1ccccc1	i	-0.3	-1.6	-3.1	0.0
Cc1ccc(S(=O)(=O)N(C)C[C@@H]2Oc3ccc(NC(=O)NC(C)C)cc3C(=O)N([C@@H](C)CO)C[C@H]2C)cc1	i	-4.6	-12.3	0.1	-2.2
COc1ccccc1NC(=O)N[C@@H]1CC[C@@H](CCn2cc(-c3cccnc3)nn2)O[C@H]1CO	i	-0.3	1.0	0.1	-15.7
CCC(CC)C(=O)N(C)c1c(C)nc2c(OCCOc3ccccc3)cccn12	i	2.0	-2.8	6.6	-4.9
Cc1noc(C)c1NC(=O)N[C@H]1CC[C@@H](CC(=O)Nc2ccc(-c3ccccc3)cc2)O[C@H]1CO	i	-6.6	-10.8	0.6	-19.5
OC[C@@H]1[C@@H](c2ccc(C#Cc3ccccc3)cc2)[C@H]2CN(Cc3cncnc3)CCCCN12	i	3.3	-2.3	2.7	-4.5
O=C(Nc1cccc(C(F)(F)F)c1)C1Cc2c(-c3ccccc3)ccnc2O1 (centres undefined)	i	-8.8	-46.8	19.9	-1.5
OC[C@H]1[C@@H](c2ccc(C#Cc3ccccc3F)cc2)[C@@H]2CN(Cc3cncnc3)CCCCN12	i	4.3	-6.0	10.4	1.8
C[C@H](CO)N1C[C@H](C)[C@@H](CN(C)S(=O)(=O)c2ccc(F)cc2)Oc2ccc(NC(=O)Cn3cnnn3)cc2C1=O	i	4.0	13.9	-1.7	-2.2
COc1cc(OC)cc(C2=Cc3ccccc3C(CC(=O)c3ccco3)N2c2ccc(-c3cncnc3)cc2)c1 (centres undefined)	i	-6.2	-0.7	20.4	7.6
N#C[C@H]1[C@@H](c2ccc(C#Cc3cccc(F)c3)cc2)[C@@H](CO)N1C(=O)C1CCCC1	i	1.5	-0.9	-1.6	-1.0
COc1ccc2c3c(n(C)c2c1)[C@H](CO)N(CC1CCOCC1)CC31CN(CC2CCOCC2)C1	i	3.0	4.2	-4.5	7.4

Filtered by structure, the entries above containing a Cl atom
SMILES	FGF22 binding	rRNA inh HTS	rRNA inh HTS OD600	rRNA inh HTS RFP	MLL AF4-AF9 inh
C[C@@H]1CCCCO[C@@H](CN(C)Cc2ccc(Cl)c(Cl)c2)[C@@H](C)CN([C@@H](C)CO)C(=O)c2cc(NS(=O)(=O)c3ccc(F)cc3)ccc2O1	i	5.1	3.9	-1.1	-0.4
C[C@H]1CN([C@@H](C)CO)C(=O)c2cccc(NC(=O)c3ccncc3)c2O[C@H]1CN(C)Cc1ccc(Cl)c(Cl)c1	i	-2.6	-4.2	0.8	-1.3

(list continues)
SMILES	FGF22 binding	rRNA inh HTS	rRNA inh HTS OD600	rRNA inh HTS RFP	MLL AF4-AF9 inh
C[C@@H]1CN([C@H](C)CO)C(=O)c2cccc(NS(=O)(=O)c3ccc(F)cc3)c2O[C@H]1CN(C)Cc1ccc(C(F)(F)F)cc1	i	1.3	12.1	3.8	-0.6
CC(=O)N1CC2(C1)[C@H](c1ccc(-c3ccc(F)cc3)cc1)[C@H](CO)N2CC1CC1	i	-6.8	2.4	0.4	0.6
CCCNC(=O)N1CC2(C1)CN(C(=O)NC1CCCC1)[C@@H](CO)c1[nH]c3cc(OC)ccc3c12	i	-1.9	6.4	-2.3	6.7
O=C(Nc1ccccc1F)N[C@H]1CC[C@H](CCNC(=O)C2CC2)O[C@H]1CO	i	1.4	9.7	-2.1	-13.7
C[C@@H]1CN([C@H](C)CO)C(=O)c2cc(NC(=O)C3CC3)ccc2O[C@@H]1CN(C)S(C)(=O)=O	i	2.9	6.0	-1.3	-3.4
COc1ccc2c3c([nH]c2c1)[C@H](CO)N(C)CC31CN(C(=O)c2cccnc2)C1	i	2.8	19.2	-1.2	-0.8
C[C@H]1CCCCO[C@@H](CN(C)C(=O)CCC(F)(F)F)[C@@H](C)CN([C@@H](C)CO)C(=O)c2cc(NC(=O)C3CCCCC3)ccc2O1	i	-2.0	-8.1	0.8	-2.2
Cc1cccc(S(=O)(=O)N[C@@H]2CC[C@@H](CCNC(=O)Nc3cc(F)ccc3F)O[C@@H]2CO)c1	i	-7.6	-17.4	4.4	4.8
COCCNC(=O)C[C@H]1C[C@@H]2c3cc(NS(C)(=O)=O)ccc3O[C@@H]2[C@@H](CO)O1	i	2.5	0.6	-1.1	-2.9
CC(C)(C)Cc1c(-c2ccc(Br)cc2)nc2ccc(Br)cn12	i	4.4	7.8	-6.1	0.9
CCCC(=O)N1CCC2(CC1)CN[C@H](CO)c1c2c2ccc(OC)cc2n1C	i	1.4	6.2	1.2	-2.3
C[C@@H]1CCCCO[C@@H](CN(C)C(=O)CCCN(C)C)[C@@H](C)CN([C@@H](C)CO)C(=O)c2cc(NC(=O)CCCN(C)C)ccc2O1	i	3.9	1.1	-2.9	-1.1
Cc1ccc(S(=O)(=O)N(C)C[C@H]2Oc3ccc(NC(=O)Nc4ccc(C(F)(F)F)cc4)cc3C(=O)N([C@H](C)CO)C[C@H]2C)cc1	+	2.3	7.4	-0.7	-0.4
CO[C@@H]1CC[C@@H]2CCOc3c(C#N)cccc3C(=O)N(C)C[C@@H](C)C(=O)N(C)C[C@@H]1O2	i	5.5	10.3	-5.9	-6.3
COCC(=O)N(C)C[C@@H]1Oc2cc(-c3ccccc3F)ccc2S(=O)(=O)N([C@H](C)CO)C[C@H]1C	i	-4.7	-8.5	-4.3	-1.2
COc1ccc(NC(=O)Nc2cccc3c2O[C@H](CN(C)Cc2ccccc2)[C@H](C)CN([C@H](C)CO)C3=O)cc1	i	-0.3	7.8	-3.7	0.1
C[C@H](CO)N1C[C@H](C)[C@H](CN(C)C(=O)Nc2ccc3c(c2)OCO3)Oc2ccc(NC(=O)CCC(F)(F)F)cc2CC1=O	i	0.8	20.2	-2.8	0.2
O=CNc1cc(-c2cccc(O)c2)cn2c(-c3ccc(F)cc3)cnc12	i	-14.9	-11.3	0.2	-6.1
CCS(=O)(=O)Nc1ccc2c(c1)C(=O)N(C)[C@H]1CC[C@@H](CC(=O)NCc3ccc(OC)cc3)O[C@H]1CO2	i	1.4	-4.2	-2.5	-2.2
Cc1cc(C(=O)Nc2ccc3c(c2)C(=O)N(C)[C@H]2CC[C@H](CC(=O)N[C@@H](C)c4ccccc4)O[C@H]2CO3)no1	i	3.8	4.1	-1.0	1.3
Cc1ccc2c(c1)CCO[C@]21O[C@H](CCO)C[C@H](O)[C@H]1O	i	16.7	11.8	0.1	-2.1
CN(C)CCNc1ncnc2c1ncn2[C@H]1CN(CCc2ccccc2)C[C@@H](CO)O1	i	13.8	27.6	-1.8	-2.7
CO[C@H]1CN(C)C(=O)c2ccc(NS(=O)(=O)c3cn(C)cn3)cc2OC[C@H](C)NC[C@H]1C	i	5.3	6.6	-3.5	-2.1
N#Cc1cccc(-c2ccc3c(c2)[C@H]2[C@H](CCN2S(=O)(=O)c2ccc(F)cc2)[C@@H](CO)N3)c1	i	-10.9	-3.9	2.5	-3.5
CN(C)C(=O)c1cccc(-c2ccc3c(c2)[C@H]2[C@H](CCN2S(=O)(=O)c2ccccc2)[C@@H](CO)N3)c1	i	-8.7	-7.6	2.9	-3.5
CCCNC(=O)C[C@@H]1C[C@@H]2c3cc(NS(=O)(=O)c4cccc(OC)c4)ccc3O[C@@H]2[C@H](CO)O1	i	-4.0	-1.8	-2.4	-5.7
C[C@@H]1CN([C@@H](C)CO)C(=O)c2cc(NC(=O)CCCN(C)C)ccc2O[C@@H](C)CCCCO[C@@H]1CN(C)S(=O)(=O)c1ccc(F)cc1	i	0.5	-0.4	0.2	4.2
C[C@H]1CN([C@@H](C)CO)C(=O)c2cccc(NS(=O)(=O)c3cn(C)cn3)c2O[C@H]1CN(C)Cc1ccc(C(=O)Nc2ccccc2N)cc1	i	1.9	-0.4	-0.9	0.8
O=C(c1cccnc1)N1C[C@@H]2[C@H](c3ccccc31)[C@H](CO)N2C(=O)C1CCOCC1	i	4.7	8.2	-0.8	-0.9
C[C@@H]1CN([C@H](C)CO)C(=O)c2cc(C#Cc3ccccn3)cnc2O[C@H]1CN(C)Cc1cccnc1	i	3.6	9.0	1.5	-3.3
CCOCCCNC(=O)Cn1cc2c(n1)-c1c(oc(C(=O)N3CCCC3)c1C)CC2	i	1.4	4.1	1.4	1.7
O=C(O)c1ccc2c(c1)S(=O)(=O)c1cc(N3CCN(c4cnccn4)CC3)ccc1C2=O	i	-4.2	1.5	-3.8	1.8
CCC(=O)N1C[C@@H](C)[C@H](OC)CN(C)C(=O)c2cc(NC(=O)NC(C)C)ccc2OC[C@H]1C	i	0.2	-2.6	-1.7	-1.6
CC(C)CC#Cc1ccc2c(c1)O[C@@H](CN(C)C(=O)C1CCCCC1)[C@H](C)CN([C@H](C)CO)S2(=O)=O	i	2.8	6.3	7.6	4.2
COc1ccc(NC(=O)Nc2ccc3c(c2)C(=O)N([C@H](C)CO)C[C@@H](C)[C@H](CN(C)C(=O)Nc2ccc(OC)cc2)O3)cc1	i	3.3	3.9	1.1	-0.9
Cc1ccc(S(=O)(=O)Nc2ccc3c(c2)CC(=O)N([C@H](C)CO)C[C@H](C)[C@@H](CN(C)S(=O)(=O)c2c(C)noc2C)O3)cc1	i	-1.4	-2.3	3.0	2.2
C[C@H]1CN([C@@H](C)CO)C(=O)c2cccc(NC(=O)NC3CCCCC3)c2O[C@H]1CN(C)Cc1ccc(-c2ccccc2)cc1	i	-2.3	-7.8	1.6	3.8
O=C(C[C@@H]1CC[C@H]2[C@@H](COC[C@@H](O)CN2C(=O)Nc2ccc(F)cc2)O1)NCCCN1CCOCC1	i	-0.3	4.6	-2.2	30.7*
C[C@@H]1CN([C@@H](C)CO)C(=O)c2ccccc2-c2ccccc2CO[C@H]1CN(C)S(=O)(=O)c1ccc(F)cc1	i	0.0	-3.8	1.4	4.3
CC(=O)Nc1ccc(CN2C(=O)C(CCc3ccccc3)ON=C2c2cnccn2)cc1 (centres undefined)	i	-0.4	18.2	2.0	1.0
CO[C@@H]1CN(C)C(=O)c2cc(NC(=O)C3CC3)ccc2OC[C@H](C)N(C)C[C@H]1C	i	3.0	-2.2	-0.8	-1.9
COc1ccc(NC(=O)c2cc(-c3cc(F)ccc3OC(C)C)n[nH]2)cc1OC	i	-16.4	-24.9	-5.0	4.2
C[C@@H]1CN([C@H](C)CO)C(=O)Cc2cc(NC(=O)Nc3cccc4ccccc34)ccc2O[C@H]1CN(C)Cc1ccc(-c2ccccc2)cc1	i	3.0	10.4	0.6	0.2

FGF22 binding, what is marked active above.
SMILES	FGF22 binding	rRNA inh HTS	rRNA inh HTS OD600	rRNA inh HTS RFP	MLL AF4-AF9 inh
C[C@H]1CN([C@@H](C)CO)C(=O)c2cccc(NC(=O)Nc3ccc4c(c3)OCO4)c2O[C@H]1CN(C)S(=O)(=O)c1cn(C)cn1	+	0.8	2.8	-2.3	-3.4
Cc1ccc(S(=O)(=O)N(C)C[C@H]2Oc3ccc(NC(=O)Nc4ccc(C(F)(F)F)cc4)cc3C(=O)N([C@H](C)CO)C[C@H]2C)cc1	+	2.3	7.4	-0.7	-0.4
